HIV TAR-Tat – HIV-1 TAR-Tat binding disruption; HIV-1 TAR RNA, Tat peptide displacement FRET; stronger effect = higher value; z-score (concentration not given with the values); 100,000 compounds, 0.6% hits; AID 1259389;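 note: score is relative to mean and SD of negative controls; some compounds called inactive have numbers as strong as hits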
CDC25B-CDK2 inh – human CDC25B-CDK2/CyclinA binding inhibition. 94,000 compounds, 0.72% hits. AID 1259370. z-score (no concentration beside the values). HTRF CDC25B-CDK2/CyclinA binding, anti-His/anti-Flag; stronger effect = higher value;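 note: score is relative to mean and SD of negative controls; strong numbers were not always called active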
The depositor's hits bear a star; i = inactive; . = not tested or not shown.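 Rule for the calls: active = z-score from 3 up in half or more of its runs; inactive = the rest.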

entry	Molecule	HIV TAR-Tat	CDC25B-CDK2 inh
1	Cc1cc(/C=N/n2cnnc2)c(C)n1-c1cc(C(=O)O)cc(C(=O)O)c1	.	1.07
2	COC(=O)C(C)Sc1ccc2nnc(-c3ccc(OC)cc3)n2n1 (configuration not stated)	.	-1.08
3	CN(CCNC(=O)c1cc(-c2cccnc2)nc2ccccc12)Cc1ccccc1	.	-0.04
4	CC1=C(c2ccccc2)S(=O)(=O)NC1=NCc1ccc(C)cc1	-1.96	-2.17
5	CN(C)/C=C1\SC(=O)N(c2ccccc2)C1=O	.	-0.75
6	O=c1c(S(=O)(=O)c2cccc(F)c2)c[nH]c2cc(F)c(Cl)cc12	0.24	-2.91
7	Cc1noc(C(=O)Nc2ccc3c(c2)OCO3)c1Cl	-0.57	-0.98
8	COCCn1c(SCC(=O)N2CCOCC2)nc2c(c1=O)SCC2	1.74	-1.13
9	COc1cn(CC(=O)Nc2ccc3c(c2)OCCO3)c(CSc2nccc(C)n2)cc1=O	1.02	.
10	Cc1ccccc1C1CC(c2cccc(NS(C)(=O)=O)c2)=NN1C(=O)C(C)(C)C (configuration not stated)	.	-2.23
11	O=c1c2c(-c3ccc(Cl)cc3)ccnc2[nH]n1-c1ccccc1	-2.36	-1.44
12	COc1ccc2c(c1)c(=O)oc1c(C)c(OCC(=O)O)ccc12	0.46	0.96
13	CCN1CCCC1CNC(=O)NC(=O)c1ccc([N+](=O)[O-])cc1 (configuration not stated)	.	0.51
14	Cc1noc(/C=C/N(C)C)c1S(=O)(=O)N1CCCC(C(=O)N2CCc3ccccc32)C1 (configuration not stated)	-1.09	-0.69
15	Cc1ccc(C)c(NS(=O)(=O)c2cc(-c3cc(C)no3)ccc2C)c1	0.06	.
16	CC(C)(C)c1nnc2sc(SCC(=O)c3ccc(F)cc3)nn2c1=O	0.49	.
17	CC(C(=O)NCc1ccco1)n1ncn2cccc2c1=O (configuration not stated)	1.23	-2.33
18	C=Cc1c(S(C)(=O)=O)sc(C(=O)OCC)c1C	.	-3.08
19	Cc1onc(-c2ccccc2)c1C(=O)Nc1nnc(C(C)(C)C)s1	.	-0.45
20	CC(C)OCCCNS(=O)(=O)c1ccc2c(c1)CC(C)N2C(=O)C1CC1 (configuration not stated)	0.86	.
21	Cc1noc2ncnc(NCCC3=CCCCC3)c12	0.86	.
22	CNC(=O)C1CCC(Cn2c(=O)c3sccc3n(CC(=O)NCCC(C)C)c2=O)CC1 (configuration not stated)	3.15	.
23	N#Cc1c(-c2ccccc2)nc(SCc2ccccc2Cl)[nH]c1=O	0.26	-4.36
24	CSc1cccc(NC(=O)NCc2c(C)nn(C)c2C)c1	0.97	.
25	CCN(CC)c1nnc(-n2cccc2CNc2cccc(OC)c2)s1	0.85	.

Of the compounds above, these contain an NH in an aromatic ring.
entry	Molecule	HIV TAR-Tat	CDC25B-CDK2 inh
6	O=c1c(S(=O)(=O)c2cccc(F)c2)c[nH]c2cc(F)c(Cl)cc12	0.24	-2.91
11	O=c1c2c(-c3ccc(Cl)cc3)ccnc2[nH]n1-c1ccccc1	-2.36	-1.44
23	N#Cc1c(-c2ccccc2)nc(SCc2ccccc2Cl)[nH]c1=O	0.26	-4.36

The results go on.
entry	Molecule	HIV TAR-Tat	CDC25B-CDK2 inh
26	Cc1cc(C)nc(SCC(=O)Nc2ncc3c(n2)CCCC3=O)n1	-1.14	-2.29
27	CCOC(=O)c1ncoc1-c1cccc(C(F)(F)F)c1	.	-1.67
28	CN(C)S(=O)(=O)c1ccc2nc(NC(=O)c3ccc(S(=O)(=O)N4CCCC4)cc3)sc2c1	1.44	.
29	Cc1ccc(S(=O)(=O)c2cn(C)c3cc(N4CCCC4)c(F)cc3c2=O)c(C)c1	-0.13	.
30	COc1ccc(N2C(=O)CSC2c2ccc(Br)cc2)cc1 (configuration not stated)	1.65	0.96
31	Cc1ccc(C)c(NS(=O)(=O)c2cn(C)c(C)n2)c1	1.75	.
32	Cc1ccc(CNc2nc(NCCN3CCCC3)nc3c2cnn3C)cc1	1.4	.
33	CSc1ccc(CCNC(=O)C2CCCN(S(=O)(=O)N(C)C3CCCCC3)C2)cc1 (configuration not stated)	0.73	.
34	CN1CCc2nc3sc(C(=O)Nc4ccccc4)c(N)c3cc2C1	1.25	-1.19
35	Cc1cc(NC(=O)c2sc3nc4n(c(=O)c3c2C)CCCC4)no1	0.89	.
36	O=C(Nc1ccc(Cl)cc1)Nc1nnc(N2CCCCC2)s1	1.07	-0.65
37	C=Cc1ccc(CN2C(=O)CSc3ccc(S(=O)(=O)N4CCOCC4)cc32)cc1	-0.76	.
38	Cc1ccc(C(=O)NCC(C)C)cc1NC1=NC2CS(=O)(=O)CC2S1 (configuration not stated)	2.61	.
39	CC[C@H]1OC(=O)[C@H](C)[C@@H](O[C@H]2C[C@@](C)(OC)[C@@H](O)[C@H](C)O2)[C@H](C)[C@@H](O[C@@H]2O[C@H](C)C[C@H](N(C)C)[C@H]2O)[C@](C)(O)C[C@@H](C)/C(=N\OCOCCOC)[C@H](C)[C@@H](O)[C@]1(C)O	0.52	.
40	CCOC(=O)N1CCN(C(=O)c2ccc3c(c2)ncn3C2CCCC2)CC1	1.35	.
41	Cc1ccc2nc3c(cc(C#N)c(=O)n3-c3nnc(SCc4ccccc4)s3)c(=O)n2c1	1.93	-1.19
42	COc1ccc(-n2ccc(=O)c(C(=O)Nc3cc(Cl)ccc3OC)n2)cc1	-0.53	-1.61
43	CCOC(=O)c1c(C)n(C)c2ccc(OCC(O)CNC3CCCCC3)cc12 (configuration not stated)	1.48	-1.32
44	COc1ccc(C2=NC(c3ccccc3)=Nc3ccc(C)cc3N2)cc1	2.29	-3.05
45	CCn1c(=O)n(CC)c2cc(N3CCCC3)c(NC(=O)C(C)(C)C)cc21	1.27	-1.68
46	O=c1c(S(=O)(=O)c2ccccc2)cn(Cc2ccc(F)cc2)c2cc(F)c(F)cc12	0.9	-3.2
47	Cc1ccc2nc(-n3nc(C)c4c3NC(=O)CC4c3ccc(F)cc3F)sc2c1 (configuration not stated)	1.17	.
48	O=C(NC1CC1)c1ccc2c(c1)[nH]c(=S)n1c3ccccc3nc21	.	-1.04
49	CC1CCCCN1CCNC(=O)C1CCN(c2nc3cccnc3s2)CC1 (configuration not stated)	0.34	.
50	CCC(C)NC(=O)C1CCN(c2ncnc3c2nc2n3CCCCC2)CC1 (configuration not stated)	0.57	.
51	COc1ccc(Nc2oc(/C=C/c3ccc(F)cc3)nc2C#N)cc1	-0.66	-0.41
52	CCOc1cccc2c1OC1(CCCCC1)N1N=C(c3cccnc3)CC21 (configuration not stated)	.	-2.21
53	COc1ccc(Br)cc1C1Nc2ccccc2S(=O)(=O)N1Cc1ccccc1 (configuration not stated)	.	-1.89
54	Cc1cc(C)c2c(=O)n(CC(=O)Nc3ccc(Br)c(C)c3)sc2n1	-1.44	.
55	O=C(NCCN1CCCC1)C(c1ccccc1)N1Cc2ccccc2C1=O (configuration not stated)	-1.15	.
56	O=C1c2ccccc2C(=O)C1(Nc1ccc2c(c1)OCCO2)c1ccccc1	0.2	.
57	O=C(O)C1CCN(C(=O)CCc2ccccc2)CC1	.	-1.69
58	CC1CN(S(=O)(=O)c2ccc3c(c2)C(=NO)c2cc(S(=O)(=O)N4CC(C)OC(C)C4)ccc2-3)CC(C)O1 (configuration not stated)	.	-3.56
59	O=C(c1ccc(S(=O)(=O)N2CCOCC2)cc1)N1CCN=C1SCc1cccnc1	.	-0.54
60	COc1ccc(-n2nnnc2/C=C/N2CCCC2)cc1	.	-1.36
61	CCCNC(=O)c1cc2c(s1)CS(=O)(=O)C2	0.69	-0.29
62	COc1ccc(NC(=O)N(CCC(C)C)C(C)c2cccs2)c(OC)c1 (configuration not stated)	1.27	.
63	O=C(C1CCN(c2nc3cccnc3s2)CC1)N1CCN(c2ccc(Cl)cc2)CC1	-0.19	.
64	Cc1nn(-c2ccccc2)nc1CNS(=O)(=O)c1cccs1	.	-0.51
65	COc1ccc(OC)c(C2C=C(c3ccc(C(C)C)cc3)Nc3ncnn32)c1 (configuration not stated)	1.75	.
66	CC1CCC(NS(=O)(=O)c2ccc(N3CCCC3=O)cc2)CC1 (configuration not stated)	-1.06	.
67	c1coc(CN2CCN(Cc3ccc4c(c3)OCO4)CC2)c1	0.7	-1
68	CCc1nnc(NC(=O)c2sc(C)nc2C)s1	2.37	-1.41
69	Cc1cc(C)c(C(=O)CC2(O)C(=O)Nc3ccccc32)cc1C (configuration not stated)	.	-2.48
70	Cc1c(C(=O)CSc2nc3ncccc3[nH]2)c2ccccc2n1C	0.41	.
71	Nc1nnc(SCC(=O)Nc2nc(-c3ccccc3)cs2)s1	0.73	2.26
72	CC(=O)C1=C(O)C(=O)N(Cc2cccnc2)C1c1ccc(O)cc1 (configuration not stated)	.	-2.1
73	CCC(NC(=O)C1CCC(CNc2c(N3CCCCC3)c(=O)c2=O)CC1)c1cccs1 (configuration not stated)	0.18	-1.66
74	CCCNC(=O)C1CCC(Cn2c(=O)c3sccc3n(CCC)c2=O)CC1 (configuration not stated)	-0.69	.
75	COC(=O)CC1C(=O)NCCN1C(=O)NC1CCCCC1 (configuration not stated)	.	0.38

The listing continues:
entry	Molecule	HIV TAR-Tat	CDC25B-CDK2 inh
76	COc1ccc(/C(O)=C2\C(=O)C(=O)N(CCCn3ccnc3)C2c2ccc(C)cc2)cc1 (configuration not stated)	-0.46	-0.37
77	CC(C)Cc1cc(C(=O)NCc2nnc(C(=O)Nc3ccc4c(c3)OCO4)s2)no1	-1.33	.
78	COc1cc(O)ccc1C1CC(=O)Nc2c1c(=O)nc(SC)n2C (configuration not stated)	0.85	0.78
79	O=C1c2ccccc2C(=O)N1c1cccc(-c2csc(Nc3cccc4ccccc34)n2)c1	.	18.8*
80	CC(=O)N1c2ccccc2N2C(c3c(C)cc(C)cc3C)=NON12	-0.17	-1.63
81	Cc1ccc(CCNc2c(-c3ccc(C)c(C)c3)c(=O)c2=O)cc1	1.98	.
82	CS(=O)(=O)CS(=O)(=O)NNc1ncc(C(F)(F)F)cc1Cl	.	0.35
83	COC(=O)C1C(=O)C2=C(CC1C)NC(C)=C(C(=O)OC(C)C)C2c1ccc2c(c1)OCO2 (configuration not stated)	1.06	0.8
84	Cc1ccc(S(=O)(=O)O/N=C2\CCCc3nonc32)cc1	.	0.43
85	COC(=O)c1cccc(N2C(=O)C3C4C=CC(CC4)C3C2=O)c1 (configuration not stated)	-0.18	-1.97
86	Cc1nc2sc3c(NC4CCCCC4)ncnc3c2c2c1COC(C)(C)C2	1.82	-0.56
87	Cc1ccc(C(=O)CSc2nnc(-c3ccccc3Br)n2C)cc1	2.27	0.87
88	Cc1nc(-c2nnc(-c3ccccc3Cl)o2)c(C(F)(F)F)o1	.	-3.16
89	CN[C@H](CC(C)C)C(=O)N[C@H]1C(=O)N[C@@H](CC(N)=O)C(=O)N[C@H]2C(=O)N[C@H]3C(=O)N[C@H](C(=O)N[C@H](C(=O)O)c4cc(O)cc(O)c4-c4cc3ccc4O)[C@H](O)c3ccc(c(Cl)c3)Oc3cc2cc(c3O[C@@H]2O[C@H](CO)[C@@H](O)[C@H](O)[C@H]2O[C@H]2C[C@](C)(N)[C@H](O)[C@H](C)O2)Oc2ccc(cc2Cl)[C@H]1O	.	i
90	O=C(CSc1nc2ncccc2o1)NC1CCCc2ccccc21 (configuration not stated)	1.55	.
91	CC(C)(C)OC(=O)N1Cc2ccccc2C[C@H]1C(=O)O	.	-1.42
92	Cc1nnsc1C(=O)n1nc(C(C)(C)C)cc1C(C)(C)C	.	-1.62
93	CCSc1ncc(CO)n1Cc1ccc(C)cc1	1.17	.
94	CC1(C)C(=O)OC(c2ccc(F)cc2)C(C)(C)C1=O (configuration not stated)	.	0.48
95	CC(=O)Nc1cccc(OC(=O)C2=Cc3sc(C)c(C)c3CS2)c1	-0.05	.
96	Cc1nnsc1C(=O)Nc1ccc(CN2CCS(=O)(=O)CC2)cc1	.	-1.38
97	COCc1cc(C)nc(SCc2ccccc2Cl)c1C#N	.	-2.77
98	CCOC(=O)C1CCCN(C(=O)CS(=O)(=O)c2ccc3c(c2)S(=O)(=O)N=CN3)C1 (configuration not stated)	0.22	.
99	Cc1c(Br)c([N+](=O)[O-])nn1CCCC(=O)Nc1sc2c(c1C(N)=O)CCC(C)C2 (configuration not stated)	-0.94	0.86
100	O=C(CC1(O)C(=O)N(Cc2ccccc2)c2ccc(Br)cc21)c1cccnc1 (configuration not stated)	-1.54	-0.39
101	O=C(Cn1ccc2nc(N3CCOCC3)ncc2c1=O)N1CCOCC1	0.28	1.64
102	O=c1[nH]c(SCc2cc(=O)n3ccccc3n2)nc2c1CCC2	-0.38	-0.95
103	Cc1ccc(-c2nc(Cn3c(=O)n(CC4CCCO4)c(=O)c4ccccc43)c(C)o2)cc1 (configuration not stated)	0.04	-1.93
104	COC(=O)CCCC(=O)Nc1cc2c(cc1Cl)n(C)c(=O)c(=O)n2C	-0.66	.
105	COC(=O)/C(=C\c1ccc(OC(C)=O)c(OC)c1)NC(=O)c1ccccc1	.	-1.57
106	CN(C)c1ccc(-c2nc3ccc(N)cc3[nH]2)cc1	.	-1.98
107	O=C(CCCc1nnc2c(=O)n(-c3ccc(Cl)cc3)ccn12)NCCN1CCCC1	0.63	.

Quoted from the listing:
CDC25B-CDK2 inh, no. 59 reads -0.54
HIV TAR-Tat, no. 65 reads 1.75

Compound profiles, from the list above:
Shown for COC(=O)/C(=C\c1ccc(OC(C)=O)c(OC)c1)NC(=O)c1ccccc1 → HIV TAR-Tat: .; CDC25B-CDK2 inh: -1.57
Shown for COC(=O)CCCC(=O)Nc1cc2c(cc1Cl)n(C)c(=O)c(=O)n2C → HIV TAR-Tat: -0.66; CDC25B-CDK2 inh: .
Shown for CN(C)c1ccc(-c2nc3ccc(N)cc3[nH]2)cc1 → HIV TAR-Tat: .; CDC25B-CDK2 inh: -1.98
